GIV-Gai inh = inhibitors of GIV GBA-motif binding to rat Galpha-i3; P08753; Galpha-i3/FITC-GIV peptide fluorescence polarization, 90 min; stronger effect = lower value; scaled: aluminum fluoride 0%, vehicle 100%; percent of control (FP), % (no concentration beside the values); actives 0.42% (n = 210,000); AID 1224905;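 active means replicate mean at 85% of control or lower, very high polarization wells dropped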;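 further: wells of about 15 µL received 100 nL stock; the first replicate is given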
Target sequence (P08753 whole entry, looked up): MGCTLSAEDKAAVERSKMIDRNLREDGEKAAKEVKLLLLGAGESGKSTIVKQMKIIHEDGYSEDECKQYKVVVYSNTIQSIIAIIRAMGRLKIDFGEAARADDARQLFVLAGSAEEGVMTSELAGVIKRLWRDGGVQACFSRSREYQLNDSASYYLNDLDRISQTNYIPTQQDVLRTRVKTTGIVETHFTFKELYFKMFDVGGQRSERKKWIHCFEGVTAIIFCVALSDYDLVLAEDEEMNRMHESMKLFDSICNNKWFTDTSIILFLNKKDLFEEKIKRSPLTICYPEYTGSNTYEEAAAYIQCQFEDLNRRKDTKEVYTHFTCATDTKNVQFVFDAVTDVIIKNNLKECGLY
Sa growth inh = S. aureus growth inhibition | relative growth, % (no concentration beside the values) | S. aureus RN4220 growth, OD600, 20 h, 42 °C; stronger effect = lower value | actives 0.53% (n = 170,000) | AID 720641;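 active means growth at 42 °C up to 50% and 20 or more points under that at 30 °C, or under 10% at both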;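 further: 300 nL library stock went into each well; scaled to the means of positive and negative controls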
HCMV UL50-53 inh = disrupts HCMV UL50-UL53 complex binding; actives 0.15% (n = 190,000); AID 1918969; HTRF UL50-UL53 interaction, normalized percent inhibition; inhibition, % (test concentration not listed);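 active means both replicates at 50% or more, plus weaker picks with an unusually low signal ratio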;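 further: stock transfer was 100 nL into about 20 µL; 0% = negative control wells and 100% = wells with untagged competitor protein; inactives centre near -12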
Sa growth inh second temp = recorded beside Sa growth inh, whose call it bears; relative growth, %; measured here: growth at 30 °C;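 optical density after 20 h as mean of two plates; 100% = untreated growth and lower means inhibition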
An asterisk follows results filed as active; · = no result given; & = joins results of further samples. Not a hit list; 0.85% or so of the library scored in one or more.

Start of the listing, in advance, 12 compounds:
SMILES | GIV-Gai inh | Sa growth inh | Sa growth inh second temp | HCMV UL50-53 inh
O=C(COc1ccc(F)cc1)Nc1ccc2nc(SCC(=O)N3CCc4ccccc43)sc2c1 | 101 | 101 | 85 | -4
COc1ccc(-c2nc3cc(C(C)C)ccc3o2)cc1NC(=O)COc1ccc(C)cc1C | 106 | 96 | 91 | -52
CC1=NN(c2ccc(Cl)c(C(=O)O)c2)C(=O)/C1=C\c1ccc(OCc2ccccc2)cc1 | 101 | · | · | 11
CCn1c2ccccc2c(=O)c2c1nnn1c3ccccc3nc21 | · | 100 | 99 | -18
CC(=O)Nc1ccc(Cl)c(NC(=O)c2ncoc2-c2cccc(C)c2)c1 | 100 | 118 | 84 | -10
Cc1cc(NS(=O)(=O)c2ccc(NCN3C(=O)c4ccccc4C3=O)cc2)no1 | 98 | 58 | 37 | -42
CCOC(=O)c1oc2ccccc2c1COc1ncnc2ccccc12 | · | 111 | 101 | 10
O=C(CSc1ccc2c(c1)OCCO2)N1CCN(Cc2ccccc2)CC1 | · | 101 | 90 | -4
CC(C)CCOc1cccc(OCC(=O)NCC2CCCO2)c1 (stereo not drawn) | · | 105 | 91 | -9
Cc1ccc(N2C(=O)C(O)=CC2(O)c2ccccc2)cc1 (stereo not drawn) | · | 36 | -1 | -19
COc1ccc(Nc2ncnc3sc(C)c(S(=O)(=O)N4CCCCC4)c23)cc1OC | 106 | · | · | -4
CCOc1ccccc1NC(=O)C(Cc1ccccc1)NS(=O)(=O)c1cccs1 (stereo not drawn) | 103 | 110 | 82 | -3

Results, repeating the preview:
SMILES | GIV-Gai inh | Sa growth inh | Sa growth inh second temp | HCMV UL50-53 inh
O=C(COc1ccc(F)cc1)Nc1ccc2nc(SCC(=O)N3CCc4ccccc43)sc2c1 | 101 | 101 | 85 | -4
COc1ccc(-c2nc3cc(C(C)C)ccc3o2)cc1NC(=O)COc1ccc(C)cc1C | 106 | 96 | 91 | -52
CC1=NN(c2ccc(Cl)c(C(=O)O)c2)C(=O)/C1=C\c1ccc(OCc2ccccc2)cc1 | 101 | · | · | 11
CCn1c2ccccc2c(=O)c2c1nnn1c3ccccc3nc21 | · | 100 | 99 | -18
CC(=O)Nc1ccc(Cl)c(NC(=O)c2ncoc2-c2cccc(C)c2)c1 | 100 | 118 | 84 | -10
Cc1cc(NS(=O)(=O)c2ccc(NCN3C(=O)c4ccccc4C3=O)cc2)no1 | 98 | 58 | 37 | -42
CCOC(=O)c1oc2ccccc2c1COc1ncnc2ccccc12 | · | 111 | 101 | 10
O=C(CSc1ccc2c(c1)OCCO2)N1CCN(Cc2ccccc2)CC1 | · | 101 | 90 | -4
CC(C)CCOc1cccc(OCC(=O)NCC2CCCO2)c1 (stereo not drawn) | · | 105 | 91 | -9
Cc1ccc(N2C(=O)C(O)=CC2(O)c2ccccc2)cc1 (stereo not drawn) | · | 36 | -1 | -19
COc1ccc(Nc2ncnc3sc(C)c(S(=O)(=O)N4CCCCC4)c23)cc1OC | 106 | · | · | -4
CCOc1ccccc1NC(=O)C(Cc1ccccc1)NS(=O)(=O)c1cccs1 (stereo not drawn) | 103 | 110 | 82 | -3
COc1ccc2[nH]c(C(=O)NCc3ccccc3F)c(N3CCCC3=O)c2c1 | 104 | · | · | 8
Nc1ncccc1OCc1ccc(Cl)c(Cl)c1 | 101 | 93 | 78 | -7
Cc1c(C#N)c2ccccc2n1CC(=O)NC1CCCCCC1 | 103 | 111 | 94 | -2
Cc1ccc(NC(=O)CCN2C(=O)c3ccccc3Sc3ncccc32)c(Cl)c1 | 102 | 115 | 100 | ·
O=C(Cn1cc(S(=O)(=O)Cc2cccc(Cl)c2)c2ccccc21)Nc1ccc(F)c(Cl)c1 | 103 | 100 | 86 | ·
CC(C)CNC(=O)COc1ccc(-c2nnco2)cc1 | · | 82 | 91 | -33
Nc1cc(C(=O)N2CCN(c3cccc(Cl)c3)CC2)ccc1N1CC2CC(C1)c1cccc(=O)n1C2 (stereo not drawn) | 104 | 99 | 74 | -22
Cc1ccc(C)n1-c1cccc(N)c1 | 123 | 91 | 89 | ·
Cc1cc(C(=O)CSc2nc(N)c(C#N)cc2C#N)c(C)n1CCC1=CCCCC1 | · | 83 | 41 | -19
Cc1ccc(C)c(N2C(=O)N(C)c3ccccc3S2(=O)=O)c1 | 110 | 96 | 100 | ·
CC(=O)N1c2ccccc2CC1C(=O)NCc1cccc(Cl)c1 (stereo not drawn) | 106 | 102 | 90 | -26
CC12CCC(O)CC1=CCC1C2CCC2(C)/C(=N/NC(=O)CCC(=O)O)CCC12 (stereo not drawn) | 101 | 96 | 91 | -10
COc1ccc(OC)c(Nc2nc3nonc3nc2Nc2cccc(Br)c2)c1 | 94 | · | · | -4
Cc1cc(C)c(S(N)(=O)=O)cc1S(N)(=O)=O | · | 107 | 86 | 3
Cn1cc(-c2nc(-c3ccc(Br)cc3)no2)c(=O)c2cc(F)c(N3CCCCC3)cc21 | 103 | · | · | -26
O=c1ccccn1Cc1cn2ccccc2n1 | 106 | 109 | 73 | 7
Cc1cc(Br)ccc1NC(=O)c1sc2nc3n(c(=O)c2c1C)CCCC3 | 101 | 119 | 89 | -26
Oc1ccccc1C1=Nc2ncnn2C(c2ccc(Cl)cc2)C1 (stereo not drawn) | · | 95 | 93 | -6
CCN(Cc1ccccc1)S(=O)(=O)c1ccc(-c2coc(C)n2)cc1 | 110 | 104 | 103 | ·
COC(=O)CCNC(=O)N1CCN(c2nnc(C)c3c(C)n(-c4ccccc4)nc23)CC1 | 112 | 97 | 87 | ·
CCN(CC)CCCNC(=O)CCc1c(C)nc2c(c1C)c(=O)n(C)c(=O)n2C | 102 | 104 | 90 | -34
COc1ccc(N2C(=O)/C(=C\c3ccc(-c4ccccc4[N+](=O)[O-])o3)C(=O)NC2=S)cc1 | 106 | · | · | -30
O=C(c1ccc(Cl)c(Cl)c1)N1CCc2ccccc21 | · | 131 | 98 | 0
COc1ccc(N2CCN(C(c3ccccc3)c3nnc(-c4ccc(Cl)cc4)o3)CC2)cc1 (stereo not drawn) | 104 | · | · | -28
COc1ccc(Cl)cc1NC(=O)Cn1c(=O)n2nc(-c3ccccc3)nc2c2ccccc21 | 106&102 | 114 | 85 | -47&12
CN(C)c1ccc(-c2nc(-c3ccco3)no2)cc1[N+](=O)[O-] | 95 | 83 | 88 | -32
O=C1/C(=C/c2ccc(-c3ccc(F)cc3F)o2)Sc2ccccc21 | 118 | · | · | -19
CCOc1ccc(NC(=O)c2cc3cc4cc(OC)ccc4nc3s2)cc1 | 104 | 103 | 95 | -15
CCn1nnc2cc(C(=O)Nc3ccc(OC)cc3)ccc21 | 105 | 89 | 90 | ·
CCOC(=O)c1c(NC2=CC(=O)CCC2)sc2c1CCCCC2 | · | 63 | 51 | -24
COc1ccc(N2CC(C(=O)Nc3cccc(-c4nc(-c5ccccc5)no4)c3)CC2=O)cc1 (stereo not drawn) | 110 | · | · | -20
O=c1c2oc3ccccc3c2ncn1Cc1cccc(F)c1 | 108 | · | · | -18
CC(C)NC(=O)C1CCN(S(=O)(=O)N2CCCCCC2)CC1 | 102 | 96 | 89 | 6
O=C(Nc1nnc(CCS(=O)(=O)c2ccc(Br)cc2)s1)C1CCCCC1 | 104 | · | · | -23
COc1ccc(C2C3=C(Nc4[nH]c(=O)[nH]c(=O)c42)c2ccccc2C3=O)cc1 (stereo not drawn) | 100 | 104 | 62 | ·
COc1ccc(C2CC(=O)N(c3cccc(F)c3)C(=O)C2)cc1OC | 99 | · | · | -39
COc1ccc(NC(=O)Cn2c(=O)n(Cc3ccc4c(c3)OCO4)c(=O)c3ccc(C(=O)NC4CCCCC4)cc32)cc1 | 105 | 100 | 92 | -29
O=S1(=O)N=C(Nc2ccccc2F)c2ccccc21 | 104 | · | · | -8
CC1CC(C)CN(C(=O)Nc2ccc(F)cc2)C1 (stereo not drawn) | 104 | 110 | 109 | -14
Cc1ccc(Cc2nnc(C(=O)NCC3CCCO3)o2)cc1 (stereo not drawn) | 101 | 92 | 87 | -10
CN(c1ccccc1)S(=O)(=O)c1ccc(C(=O)NC2=NCCS2)cc1 | · | 98 | 85 | -15
COc1ncnc2sc(C(=O)O)c(C)c12 | 105 | 99 | 99 | -4
O=C(O)c1ccccc1 | · | 89 | 86 | -40&9
C=CCn1c(=O)c(C(=O)Nc2cccc(OC)c2)c(O)c2ccccc21 | 105 | · | · | -12
Cc1ccc(-n2c(C)cc(-c3csc(NC(=O)C(C)C)n3)c2C)cc1 | · | 94 | 63 | -4
COC(=O)C(C)Sc1n[nH]c(-c2ccc(Br)cc2)n1 (stereo not drawn) | · | 85 | 93 | -2
COc1ccc(CCNC(=O)c2cc3c(=O)n(C)c4ccccc4c3s2)cc1OC | 97 | 105 | 91 | -20
Cc1cc(OCCn2cc(/C(N)=N/O)c3ccccc32)ccc1Cl | 103 | 87 | 82 | -1

Results in Sa growth inh and HCMV UL50-53 inh, for 2 of the compounds above:
SMILES	Sa growth inh	HCMV UL50-53 inh
CC1CC(C)CN(C(=O)Nc2ccc(F)cc2)C1 (stereo not drawn)	110	-14
Cc1ccc(Cc2nnc(C(=O)NCC3CCCO3)o2)cc1 (stereo not drawn)	92	-10

Next results:
SMILES | GIV-Gai inh | Sa growth inh | Sa growth inh second temp | HCMV UL50-53 inh
Cc1ccc(S(=O)(=O)NC(=O)N2CCCCCC2)cc1 | · | 100 | 94 | 2
CC(NC(=O)CSc1nnc2ccccn12)c1ccc2c(c1)OCCO2 (stereo not drawn) | · | 91 | 98 | -7
CN(C1CCCCC1)S(=O)(=O)c1ccc(F)c(C(=O)Nc2ccc(C(F)(F)F)cc2)c1 | 103 | 123 | 91 | ·
S=C(NCCc1ccccc1)NNC1=NCCCCC1 | · | 114 | 85 | -20
Cc1cc(-n2nc3ccccc3n2)c2oc(SCc3nnc(-c4ccccc4)o3)nc2c1 | 97 | 83 | 94 | -3
COc1cc(OC)c(NC(=O)N2CCN(c3ccc(=O)n(-c4ccc(F)cc4)n3)CC2)cc1Cl | 106 | · | · | -40
COC(=O)c1c(C(=O)OC)c2n(c1C)CSC2 | 103 | 110 | 84 | -27
O=C(Nc1ccc(S(=O)(=O)Nc2ccccn2)cc1)c1cc2ccccc2o1 | 97 | 91 | 82 | -18
COc1ccc(-c2csc3nc(-c4ccccc4Cl)oc(=O)c23)cc1 | 102 | · | · | -4
Cc1nnc(SC(C)C(N)=O)n1Cc1ccccc1 (stereo not drawn) | · | 101 | 100 | -6
O=C(O)C1C2C=CC3(CN(CC4CCCO4)C(=O)C13)O2 (stereo not drawn) | 93 | 101 | 91 | -1
CCn1c(C(=O)N2CCC(C(=O)NCc3ccccc3OC)CC2)cc2sccc21 | 110 | 111 | 97 | -6
COc1cccc(NS(=O)(=O)c2ccc3[nH]cc(C(=O)N4CCCCCC4)c(=O)c3c2)c1 | 97 | 93 | 93 | 17
CCc1ccc(S(=O)(=O)N(C(=O)c2ccncc2)c2ccc3oc(C)c(C(=O)OC)c3c2)cc1 | 105&107 | 106 | 98 | -25&-4
CCN(CC)c1ccc(C(=O)OCc2nc3ccccc3c(=O)[nH]2)cc1 | · | 111 | 98 | -13
COc1ccc(-c2onc(C)c2C)cc1S(=O)(=O)NC1CCC(C)CC1 (stereo not drawn) | 102 | 84 | 95 | ·
O=C(CSc1ccccc1)Nc1nc2ccccc2[nH]1 | · | 109 | 94 | -16
O=S(=O)(NCc1ccc2c(c1)OCO2)c1ccccc1 | 101 | 68 | 61 | ·
Cc1ccc(Cn2c(N)c(C#N)c3nc(C#N)c(C#N)nc32)cc1 | · | 89 | 98 | -22
COc1ccc(S(=O)(=O)c2c(C(=O)c3ccc(C)c(C)c3)cnc3ccc(F)cc23)cc1 | 106 | 114 | 81 | -9
CSc1nc(N/C=C(\C#N)S(=O)(=O)c2ccccc2Cl)nc(C2CC2)n1 | 103 | 89 | 85 | 2
Cc1ccc(CSc2nccc(C)n2)cc1 | 106 | 108 | 105 | -19
O=c1c2cc3c(cc2nc2sc(NCc4ccccc4)nn12)OCO3 | 103 | 91 | 89 | -10
O=C(NC1=NCCS1)c1cc2c(s1)CCC2 | · | 101 | 86 | -30
CCOCCCn1c(SCC(=O)NCc2ccccc2)nc2c(sc3ccccc32)c1=O | 109 | 107 | 90 | ·
O=C(CCNC(=O)c1ccco1)Nc1cc(Cl)ccc1N1CCCCCC1 | · | 108 | 95 | 9
CCOc1ccc(N2C(=O)CC(N3CCN(c4ccccc4OC)CC3)C2=O)cc1 (stereo not drawn) | 98 | · | · | -16
CCn1nccc1C1CCCN1C(=O)Nc1ccc(Cl)cc1 (stereo not drawn) | 98 | · | · | -23
O=C(CN1CCN(Cc2ccc(F)cc2Cl)S1(=O)=O)Nc1ccc(F)cc1 | 112 | 105 | 104 | ·
COc1ccc(C2CC(=O)C3=C(C2)NC(C)=C(C(=O)OC(C)C)C3c2cccc(OC)c2OC)cc1OC (stereo not drawn) | 101 | · | · | -33
CCOC(=O)c1cc(C(=O)Nc2ccc(OC)cc2OC)c(=O)[nH]c1C | 101 | · | · | 8
O=C(c1ccccc1)C(O)c1c[nH]c2ccccc12 (stereo not drawn) | · | 127 | 90 | 13
OC(COCc1ccccc1)Cn1cnc2ccccc21 (stereo not drawn) | 100 | 112 | 99 | 6
CCCCn1cc(S(=O)(=O)c2ccc(OC)cc2)c(=O)c2cc(F)c(F)cc21 | 108 | 107 | 77 | -29
COc1cccc(-c2ccc3c(N)c(C(=O)Nc4ccccc4C)sc3n2)c1 | 107 | 90 | 76 | ·
C=Cc1ccc(Cn2c(C(=O)OC)cc3sc(C)cc32)cc1 | 105 | 106 | 93 | -11
Cc1ccc(Nc2nc3ccccc3n3cnnc23)cc1Cl | 100 | · | · | -25

Source: PubChem
